Screening results deposited in PubChem by Broad Institute.
p53 mut binder: binds human mutant p53 on microarray. small molecule microarray binding, anti-GST fluorescence. calls only. 0.4% of 17,000 active. AID 624136;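 active means compounds whose four printed spots each glow above background more than chance allows, each with a p-value under 7%; compounds were printed on slides so no solution concentration is given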;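 further: about 2 pmol printed per array spot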
c-Myc SMM: binders of human c-Myc | P01106 | small molecule microarray, His-c-Myc binding, anti-His fluorescence | calls only | 1.5% of 17,000 active;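 active means spot fluorescence over background with P-value below 7% in all four replicate spots, showing protein binding; compounds were printed on slides so no solution concentration is given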;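 further: score is binary with 100 for all four spots passing and 0 otherwise; about 2 pmol printed per array spot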
Target sequence (P01106 whole entry, looked up): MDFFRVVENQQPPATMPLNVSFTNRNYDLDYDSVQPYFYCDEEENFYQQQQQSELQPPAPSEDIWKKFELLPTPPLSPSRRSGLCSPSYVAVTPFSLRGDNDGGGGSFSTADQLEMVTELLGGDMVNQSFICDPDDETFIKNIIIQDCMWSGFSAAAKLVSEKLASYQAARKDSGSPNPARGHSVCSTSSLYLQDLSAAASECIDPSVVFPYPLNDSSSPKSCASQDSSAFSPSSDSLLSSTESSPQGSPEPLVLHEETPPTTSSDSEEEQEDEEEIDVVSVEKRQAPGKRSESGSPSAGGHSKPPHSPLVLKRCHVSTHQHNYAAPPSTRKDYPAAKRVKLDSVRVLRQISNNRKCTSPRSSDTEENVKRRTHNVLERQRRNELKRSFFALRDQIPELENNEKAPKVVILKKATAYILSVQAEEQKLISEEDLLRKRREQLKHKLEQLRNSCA
STAT3 binder: STAT3 (human) binding | P40763 | Small molecule microarray, His-STAT3 binding, anti-His fluorescence | calls only | 0.2% of 17,000 active | AID 624138;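 active means compounds whose four printed spots each show fluorescence over background unusually high for their array block, chance value under 7%; compounds were printed on slides so no solution concentration is given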;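 further: about 2 pmol printed per array spot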
ID4 binder: ID4 (human) binding. P47928. small molecule microarray, Flag-ID4 binding, fluorescence F/B. calls only. 1.2% of 31,000 active;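 active means spot signal over background at p below 0.07 in all four prints; compounds were printed on slides so no solution concentration is given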;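 further: a binder raises fluorescence above local background on the spot; about 2 pmol printed per array spot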
Target sequence (P47928 whole entry, looked up): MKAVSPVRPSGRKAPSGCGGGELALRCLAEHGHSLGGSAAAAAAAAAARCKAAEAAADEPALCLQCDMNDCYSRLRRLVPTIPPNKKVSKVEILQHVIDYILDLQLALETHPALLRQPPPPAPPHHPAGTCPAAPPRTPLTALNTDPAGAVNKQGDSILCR
Calls only; i = inactive; nt = no result given; + = active, no number.

SMILES | p53 mut binder | c-Myc SMM | STAT3 binder | ID4 binder
CC(C)NC(=O)N(C)C[C@@H]1OCc2cn(nn2)CCCC(=O)N([C@@H](C)CO)C[C@@H]1C | i | i | i | i
C[C@H](CO)N1C[C@H](C)[C@H](CN(C)C)OCCCC[C@H](C)Oc2ccc(NC(=O)Nc3ccccc3)cc2C1=O | i | i | i | i
C[C@H]1CN([C@@H](C)CO)C(=O)c2cccc(NC(=O)C3CCOCC3)c2O[C@H]1CN(C)C(=O)Nc1ccc2c(c1)OCO2 | i | i | i | i
O=C(Nc1cccc(C(F)(F)F)c1)Nc1cc(Cl)ccc1C(=O)O | i | i | i | i
CCCc1cc(=O)oc2cc(OCC(=O)Nc3ccc4c(c3)OCCO4)ccc12 | i | i | i | i
C[C@@H]1CN([C@@H](C)CO)C(=O)c2cc(NS(=O)(=O)c3cccs3)ccc2O[C@@H](C)CCCCO[C@@H]1CN(C)C | i | i | i | i
O=C(/C=C/c1ccc(O)c(O)c1)OCCc1ccccc1 | i | i | i | i
C[C@@H]1CN([C@H](C)CO)C(=O)Cc2cc(NS(=O)(=O)c3cn(C)cn3)ccc2O[C@@H]1CN(C)CC1CC1 | i | i | i | i
Cc1noc(C)c1NC(=O)Nc1ccc2c(c1)C(=O)N([C@@H](C)CO)C[C@H](C)[C@H](CN(C)C)OCCCC[C@@H](C)O2 | i | i | i | i
COc1ccc(NC(=O)Nc2ccc3c(c2)C(=O)N([C@H](C)CO)C[C@@H](C)[C@H](CN(C)Cc2ccc(C(F)(F)F)cc2)O3)cc1 | i | i | i | nt
C[C@@H]1CN([C@@H](C)CO)C(=O)c2cc(NC(=O)Nc3ccc4c(c3)OCO4)ccc2O[C@H]1CN(C)C(=O)Nc1ccc(C(F)(F)F)cc1 | i | i | i | i
C[C@H]1CN([C@@H](C)CO)C(=O)Cc2cc(NS(=O)(=O)c3ccccc3)ccc2O[C@@H]1CN(C)S(=O)(=O)c1ccc(F)cc1 | i | i | i | i
C[C@H](CO)N1C[C@H](C)[C@@H](CN(C)C(=O)Nc2ccc(C(F)(F)F)cc2)Oc2ccc(NC(=O)CCN3CCOCC3)cc2C1=O | i | i | i | nt
C[C@@H]1CN([C@@H](C)CO)C(=O)c2cccc(NC(=O)NC3CCCCC3)c2O[C@@H]1CN(C)Cc1ccc(C(=O)O)cc1 | i | i | i | i
CO[C@@H]1[C@@H](OC(N)=O)[C@@H](O)C(Oc2ccc3c(O)c(NC(=O)c4ccc(O)c(CC=C(C)C)c4)c(=O)oc3c2C)OC1(C)C (stereo partly drawn) | i | i | i | nt
c1ccc2oc(C3=NCCN3)cc2c1 | i | i | i | i
CO[C@H]1O[C@H](CO)[C@@H](OC(=O)Nc2cccc(F)c2)[C@H](OC(=O)Nc2ccc3c(c2)OCO3)[C@@H]1OC(=O)Nc1ccc2c(c1)OCO2 | i | i | i | i
COc1cc(O)c(CCO)c2c1C(=O)C[C@@H](C)O2 | i | i | i | nt
CCCCC[C@H](O)/C=C/[C@@H]1[C@H]2C/C(=C/CCCC(=O)O)O[C@H]2C[C@H]1O | i | i | i | nt
C=C(C(=O)O)C(CCCCC(C)O)C(=O)O (stereo not drawn) | i | i | i | i
COc1cccc2c1C(=O)c1c(O)c3c(c(O)c1C2=O)C[C@@](O)(C(=O)CO)C[C@@H]3OC1CC(N)C(O)C(C)O1 (stereo partly drawn) | i | i | i | nt
Cc1noc(C)c1NC(=O)Nc1cccc2c1O[C@H](CN(C)Cc1ccc(C(=O)O)cc1)[C@@H](C)CN([C@@H](C)CO)C2=O | i | i | i | i
Cc1ccc(S(=O)(=O)N(C)C[C@@H]2OCCCC[C@H](C)Oc3ccc(NC(=O)NC4CCCCC4)cc3C(=O)N([C@@H](C)CO)C[C@@H]2C)cc1 | i | i | i | nt
C[C@H](CO)N1C[C@H](C)[C@H](CN(C)S(=O)(=O)c2ccccc2)Oc2ccc(N(C)C)cc2C1=O | i | i | i | i
CNC(=O)C(=O)NCCc1c[nH]c2ccccc12 | i | i | i | i
COC(=O)[C@]1(CO)N=C(c2ccc(OCCCO)cc2)O[C@@H]1c1ccccc1N=[N+]=[N-] | i | i | i | i
C[C@H]1CN([C@@H](C)CO)C(=O)c2cccc(NC(=O)C3CCOCC3)c2O[C@@H]1CN(C)Cc1ccc2c(c1)OCO2 | i | i | i | i
C[C@H]1CN([C@@H](C)CO)C(=O)c2cccc(NS(=O)(=O)c3ccccc3)c2O[C@@H]1CN(C)C(=O)Nc1ccc2c(c1)OCO2 | i | i | i | i
Cn1c(=O)c2c(nc(NCc3cccnc3)n2Cc2c(F)cccc2Cl)n(C)c1=O | i | i | i | i
COc1ccc(CN(C)C[C@@H]2Oc3ccc(NC(=O)Nc4ccc(OC)cc4)cc3C(=O)N([C@H](C)CO)C[C@@H]2C)cc1 | i | i | i | i
C[C@@H]1CN([C@@H](C)CO)C(=O)c2cc(NC(=O)CCC(F)(F)F)ccc2O[C@@H](C)CCCCO[C@H]1CN(C)C(=O)CCC(F)(F)F | i | i | i | i
O=C1CCCC(=O)C1CC1C(=O)CCCC1=O | i | i | i | i
O=C(NCc1ccccc1)C1=C[C@H](c2coc3ccccc3c2=O)C[C@H](OCc2ccc(CO)cc2)O1 | i | i | i | nt
Cc1noc(C)c1NC(=O)N(C)C[C@@H]1Oc2ccc(NC(=O)Cn3cnnn3)cc2CC(=O)N([C@H](C)CO)C[C@@H]1C | i | i | i | i
CC(C)NC(=O)Nc1cccc2c1O[C@@H](CN(C)Cc1ccc(C(F)(F)F)cc1)[C@H](C)CN([C@@H](C)CO)C2=O | i | + | i | i
C[C@H](CO)N1C[C@H](C)[C@@H](CN(C)Cc2ccc(C(F)(F)F)cc2)Oc2ccc(NC(=O)CCN3CCOCC3)cc2C1=O | i | i | i | i
Cc1ccc(S(=O)(=O)NC(C)C(=O)Nc2ccc(C(N)=O)cc2)cc1 (stereo not drawn) | i | i | i | i
C[C@H](CO)N1C[C@H](C)[C@@H](CN(C)S(=O)(=O)c2ccccc2)OCCCC[C@H](C)Oc2ccc(NC(=O)c3ccccc3)cc2C1=O | i | i | i | nt
Cc1cc2nn(-c3ccccc3)nc2cc1NC(=O)C(C)(C)Oc1ccc(Cl)cc1 | i | i | i | i
Cc1noc(C)c1S(=O)(=O)N(C)C[C@H]1Oc2ccc(NC(=O)C3CCCCC3)cc2CC(=O)N([C@@H](C)CO)C[C@@H]1C | i | i | i | i
C[C@@H]1CCCCO[C@H](CN(C)Cc2ccncc2)[C@@H](C)CN([C@@H](C)CO)C(=O)c2cc(NC(=O)Nc3ccccc3)ccc2O1 | i | i | i | i
COc1ccc(S(=O)(=O)N(C)C[C@@H]2Oc3ccc(NC(=O)Nc4ccc5c(c4)OCO5)cc3C(=O)N([C@H](C)CO)C[C@@H]2C)cc1 | i | i | i | i
O=C1O[C@@H](c2ccccc2)[C@@H](c2ccccc2)N2[C@@H](c3ccc(OCCO)cc3)[C@]3(C(=O)Nc4ccc(C#CCCO)cc43)[C@@H](C(=O)NC[C@H](O)c3ccccc3)[C@H]12 | i | i | i | i
CC(C)NC(=O)N(C)C[C@H]1Oc2ccc(NC(=O)C3CC3)cc2CC(=O)N([C@@H](C)CO)C[C@@H]1C | i | i | i | i
COC(=O)c1c(NC(=O)CN(c2cc(C)ccc2C)S(C)(=O)=O)sc2c1CCCC2 | i | i | i | i
Cc1noc(C)c1S(=O)(=O)Nc1ccc2c(c1)C(=O)N([C@H](C)CO)C[C@@H](C)[C@H](CN(C)C)OCCCC[C@@H](C)O2 | i | i | i | i
C[C@@H]1CN([C@H](C)CO)C(=O)c2cccc(NS(=O)(=O)c3ccc(Cl)cc3)c2O[C@@H]1CN(C)C(=O)Nc1ccc(F)cc1 | i | i | i | i
CCOC(=O)c1sc(NC(=O)c2cc(-c3ccccn3)nc3ccccc23)c(C(=O)OCC)c1C | i | i | i | i
Cc1ccc(S(=O)(=O)Nc2cccc3c2O[C@@H](CN(C)Cc2ccc(C(F)(F)F)cc2)[C@@H](C)CN([C@@H](C)CO)C3=O)cc1 | i | i | i | nt
CC(=O)c1cccc(NS(=O)(=O)c2cccc(S(=O)(=O)c3ccccc3)c2)c1 | i | i | i | i
Cc1noc(C)c1S(=O)(=O)Nc1ccc2c(c1)C(=O)N([C@@H](C)CO)C[C@@H](C)[C@@H](CN(C)C(=O)Nc1ccccc1)OCCCC[C@@H](C)O2 | i | i | i | i
CC(Oc1ccc(Br)cc1)C(=O)NCc1ccccn1 (stereo not drawn) | i | i | i | i
COc1ccc(S(=O)(=O)Nc2ccc3c(c2)CC(=O)N([C@H](C)CO)C[C@@H](C)[C@@H](CN(C)Cc2ccc(C(=O)O)cc2)O3)cc1 | i | i | i | i
CCc1ccc(Nc2nc3ccccc3nc2NS(=O)(=O)c2ccc(NC(C)=O)cc2)cc1 | i | i | i | i
O=C(COc1ccc(C(=O)Nc2cccc(C(F)(F)F)c2)cc1)Nc1ccccc1 | i | i | i | i
COCCNC(=O)COc1ccc(OCCNC[C@@H](O)COc2ccccc2)cc1 | i | i | i | i
C[C@@H]1O[C@@H](O[C@H]2[C@@H]3C=CO[C@@H](O[C@@H]4O[C@H](CO)[C@@H](O)[C@H](O)[C@H]4O)[C@@H]3[C@@]3(CO)O[C@@H]23)[C@H](O)[C@H](O)[C@H]1OC(=O)/C=C/c1ccccc1 | i | i | i | i
CNC[C@H]1Oc2ccc(NC(=O)NC3CCCCC3)cc2C(=O)N([C@@H](C)CO)C[C@@H]1C | i | i | i | i
C[C@H]1CN([C@@H](C)CO)C(=O)c2cc(NC(=O)Nc3ccc(F)cc3)ccc2O[C@H]1CN(C)C(=O)Nc1ccc(F)cc1 | i | i | i | i
COc1cc(/C=C/C(=O)OCC[N+](C)(C)C)cc(OC)c1O | i | i | i | nt

Of the compounds above, 4 have two or more sulfur atoms.
SMILES | p53 mut binder | c-Myc SMM | STAT3 binder | ID4 binder
C[C@@H]1CN([C@@H](C)CO)C(=O)c2cc(NS(=O)(=O)c3cccs3)ccc2O[C@@H](C)CCCCO[C@@H]1CN(C)C | i | i | i | i
C[C@H]1CN([C@@H](C)CO)C(=O)Cc2cc(NS(=O)(=O)c3ccccc3)ccc2O[C@@H]1CN(C)S(=O)(=O)c1ccc(F)cc1 | i | i | i | i
COC(=O)c1c(NC(=O)CN(c2cc(C)ccc2C)S(C)(=O)=O)sc2c1CCCC2 | i | i | i | i
CC(=O)c1cccc(NS(=O)(=O)c2cccc(S(=O)(=O)c3ccccc3)c2)c1 | i | i | i | i

The listing picks up, repeating the two entries before the break.
SMILES | p53 mut binder | c-Myc SMM | STAT3 binder | ID4 binder
C[C@H]1CN([C@@H](C)CO)C(=O)c2cc(NC(=O)Nc3ccc(F)cc3)ccc2O[C@H]1CN(C)C(=O)Nc1ccc(F)cc1 | i | i | i | i
COc1cc(/C=C/C(=O)OCC[N+](C)(C)C)cc(OC)c1O | i | i | i | nt
C[C@@H]1CN([C@H](C)CO)C(=O)c2cc(NS(C)(=O)=O)ccc2O[C@@H]1CN(C)C(=O)NC1CCCCC1 | i | i | i | i
C[C@H](CO)N1C[C@H](C)[C@H](CN(C)Cc2ccncc2)Oc2ccc(NC(=O)C3CC3)cc2C1=O | i | i | i | i
CCn1c2ccccc2n2c(SCC(=O)Nc3ccc(C)cc3)nnc12 | i | i | i | i
C[C@@H]1CN([C@@H](C)CO)C(=O)Cc2cc(NC(=O)CCCN(C)C)ccc2O[C@H]1CN(C)Cc1ccncc1 | i | i | i | i
Cc1noc(C)c1NC(=O)N(C)C[C@@H]1Oc2ccc(NC(=O)C3CC3)cc2CC(=O)N([C@@H](C)CO)C[C@@H]1C | i | i | i | i
[N-]=[N+]=Nc1ccccc1C[C@]1(C(=O)NCCN2CCOCC2)N=C(c2ccc(OCCCO)cc2)O[C@H]1c1ccccc1N=[N+]=[N-] | i | i | i | i
C[C@H](CO)N1C[C@H](C)[C@H](CN(C)C(=O)Nc2ccc(C(F)(F)F)cc2)OCCCC[C@H](C)Oc2ccc(NS(C)(=O)=O)cc2C1=O | i | i | i | i
C[C@@H]1CN([C@@H](C)CO)C(=O)Cc2cc(NC(=O)Nc3ccc4c(c3)OCO4)ccc2O[C@@H]1CN(C)C(=O)NC1CCCCC1 | i | i | i | i
COc1cc(NC(=O)CSc2ncnc3sc(C)c(C)c23)cc(OC)c1 | i | i | i | i
N#Cc1cc2[nH]c(=O)c(=O)[nH]c2cc1[N+](=O)[O-] | i | i | i | i
CC(=O)CCc1ccc(Oc2ccc(C(F)(F)F)cn2)cc1 | i | i | i | i
CSc1nc2sc3c(c2c2nnc(SCC(=O)Nc4ccccc4)n12)CCC3 | i | i | i | i
C[C@@H]1CN([C@H](C)CO)C(=O)c2cc(NC(=O)Nc3ccc4c(c3)OCO4)ccc2O[C@@H]1CN(C)C | i | i | i | i
CCOC(=O)[C@H](CCc1ccccc1)N[C@@H](C)C(=O)N1Cc2cc(OC)c(OC)cc2C[C@H]1C(=O)O | i | i | i | nt

Not all compounds are listed, so the mix of outcomes need not match the whole.
